# Compound activity: PubChem BioAssay, ICCB-Longwood Screening Facility, Harvard Medical School
# GIV Gai3 FP: blocks GIV peptide binding to rat Galpha-i3 | Galpha-i3/FITC-GIV peptide fluorescence polarization, 90 min; active compounds read low; scaled: aluminum fluoride 0%, vehicle 100% | percent of control (FP), % (no concentration beside the values) | 0.42% of 210,000 active | P08753;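 active = replicate mean at 85% of control or lower, very high polarization wells dropped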;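 note: wells of about 15 µL received 100 nL stock; the first replicate is given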
# Target sequence (P08753 whole entry, looked up): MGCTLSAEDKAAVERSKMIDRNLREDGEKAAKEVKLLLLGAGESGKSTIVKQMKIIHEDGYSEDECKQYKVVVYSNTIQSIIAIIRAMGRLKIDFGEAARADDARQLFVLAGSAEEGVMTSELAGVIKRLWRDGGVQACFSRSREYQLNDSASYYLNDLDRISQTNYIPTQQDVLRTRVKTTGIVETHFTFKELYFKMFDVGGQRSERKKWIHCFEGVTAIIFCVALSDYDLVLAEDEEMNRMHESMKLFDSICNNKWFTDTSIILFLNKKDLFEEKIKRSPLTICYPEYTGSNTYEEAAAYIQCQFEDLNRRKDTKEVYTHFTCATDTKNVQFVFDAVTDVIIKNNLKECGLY
# Sa growth 42C: inhibitors of Staphylococcus aureus growth at 42 °C | S. aureus RN4220 growth, OD600, 20 h; active compounds read low | relative growth, % (no concentration beside the values) | 0.53% of 170,000 active;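 active = growth at 42 °C up to 50% and 20 or more points under that at 30 °C, or under 10% at both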;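 note: 300 nL library stock went into each well; scaled to the means of positive and negative controls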
# HCMV UL50-53 inh: inhibitors of HCMV UL50-UL53 nuclear egress complex interaction. HTRF UL50-UL53 interaction, normalized percent inhibition. 0.15% of 190,000 active. inhibition, % (concentration not given with the values);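 active = both replicates at 50% or more, plus weaker picks with an unusually low signal ratio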;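 note: stock transfer was 100 nL into about 20 µL; 0% = negative control wells and 100% = wells with untagged competitor protein; inactives centre near -12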
# Sa growth 42C second temp: also measured in Sa growth 42C; calls as there; relative growth, %; measured here: growth at 30 °C;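 optical density after 20 h as mean of two plates; 100% = untreated growth and lower means inhibition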
# The depositor's hits bear a star; . = not tested or not shown; & = joins results of further samples. No enrichment for hits; overall some 0.8% were active at least once.
SMILES	GIV Gai3 FP	Sa growth 42C	Sa growth 42C second temp	HCMV UL50-53 inh
O=C1CC(C(=O)Nc2nccs2)C(c2ccccc2)O1 (configuration not stated)	105	75	81	-1
Cc1ccccc1Nc1nc(N)nc(COC(=O)[C@@H](NC(=O)c2ccco2)C(C)C)n1	.	75	81	-24
C=CCN(C(=O)C1CC=CCC1)c1ccccc1 (configuration not stated)	.	106	98	1
CCN(CC)C(=O)Oc1ccc2c(C(F)(F)F)cc(=O)oc2c1	99	105	75	4
Cc1ccc(Cl)cc1N1CCN(C(=O)Cn2cnc3onc(-c4ccc(F)cc4)c3c2=O)CC1	103	120	100	.
O=C(c1cc(NS(=O)(=O)c2ccccc2)ccn1)N1CCCCC1	108&96	101	93	-3&-32
Cc1cc(C(=O)N2CCN(c3ccc(C(F)(F)F)cn3)CC2)c(C)o1	108	88	82	-19
O=C(c1cccs1)N1CCN(S(=O)(=O)/C=C/c2ccccc2)CC1	.	88	97	-19
CCOc1cc(CNC(=O)CN2CCSc3ccccc32)cc(OCC)c1OCC	103	107	87	.
Cc1ccc2c(c1)C=C(C(=O)Nc1ccc(C(C)C)cc1)C=CO2	99	.	.	-8
CS(=O)(=O)n1nc(-c2cccnc2)nc1NCc1ccccc1	102	95	83	-12
O=C(C1Cc2ccccc2CN1S(=O)(=O)c1cccs1)N1CCOCC1 (configuration not stated)	99	91	84	-21
Cc1ccc(NC(=NCc2ccncc2)NC(=O)c2ccc3c(c2)OCO3)cc1	100	.	.	-2
Cc1ccc(NC(=O)/C(C#N)=C\Nc2cccc(O)c2)cc1	119	106	91	-4
O=C1/C(=C/c2ccccc2)CC/C1=C1/NCCN1C1CC(=O)N(c2cccc(F)c2)C1=O (configuration not stated)	.	96	102	4
COc1ccc(C2C(C#N)=C(N)Oc3n[nH]c(-c4ccc5ccccc5c4)c32)cc1OC (configuration not stated)	97	.	.	-86
CC(C)CCNC(=O)C1C2C(=O)N(Cc3ccccc3)CC23C=CC1(C)O3 (configuration not stated)	100	88	75	.
C=CCn1c(=S)[nH]c2sc3c(c2c1=O)CC(C)(C)OC3	101	108	86	.
CCn1ccc2cc(S(=O)(=O)N3CCCN(C(=O)Nc4ccccc4C(F)(F)F)CC3)ccc21	103	112	103	.
Cc1ccc(NC2=CC(=O)CC(c3ccc(Cl)cc3)C2)cc1 (configuration not stated)	.	94	80	-8
Cc1ccc(NC(C)C(=O)N/N=C/c2ccco2)cc1 (configuration not stated)	102	87	79	-39
CNc1nc(-c2cccs2)cc(C(F)(F)F)n1	.	128	85	6
N#CCn1c(COC(=O)C23CC4CC(CC(O)(C4)C2)C3)nc2ccccc2c1=O	.	93	90	4
CC1CC(C)CN(C(=O)c2ccccc2NS(=O)(=O)c2ccc(F)cc2)C1 (configuration not stated)	.	108	93	-26
O=C(Nc1ccc2oc(-c3ccc4ccccc4c3)nc2c1)c1cccc(Cl)c1Cl	100	98	89	-40
Cc1ccc(S(=O)(=O)c2cn(C)c3cc(N4CCOCC4)c(F)cc3c2=O)c(C)c1	102	115	88	.
Cc1ccc(N2C(=O)CCS2(=O)=O)cc1S(=O)(=O)N1CCCC1	107	.	.	-16
O=S(=O)(c1ccccc1)c1nnn2c1nc(NCc1ccc(Cl)cc1)c1sccc12	103	116	92	.
CCN(CC)S(=O)(=O)c1ccc(Br)c2nsnc12	107	.	.	-53
Cc1nn(Cc2ccccc2)c(C)c1CCC(=O)O	97	93	91	-12
COc1ccc(-n2c(=S)[nH]c3cc(C(=O)N4CCN(c5ccccc5)CC4)ccc3c2=O)cc1	99	110	90	.
Cc1cc(C)n(C(N)=S)n1	.	118	85	-6
CCn1c(CSc2nc3ccccc3s2)nnc1SCC(=O)N(c1ccccc1)C(C)C	.	100	87	-20
CCc1cc(=O)[nH]c(Nc2ccccc2)n1	110	.	.	-7
CCOC(=O)c1sc(NS(=O)(=O)c2ccccc2)nc1C	101	98	86	-22
CCCCNC(=O)C1CC(=O)N(CCC(C)C)C1 (configuration not stated)	110	101	94	-9
CCc1nn(CC(=O)Nc2cccc(C(C)=O)c2)c(=O)c2cc3sccc3n12	109	106	89	-18
O=C(c1cncn1-c1ccccc1)N(Cc1ccco1)Cc1cccs1	.	101	93	-3
COc1ccc(C2Oc3ccc(Br)cc3C3CC(c4ccccc4)=NN32)cc1OC (configuration not stated)	103	.	.	-9
CCC(=O)OCCN1C(=O)c2ccccc2C1=O	101	104	85	-44
CCn1c(SCC(=O)OCC(=O)c2ccc(Br)s2)nnc1-c1cccs1	.	88	97	-3
COc1ccc(-c2cc(C(=O)Oc3ccc(Br)cc3)c3ccccc3n2)cc1	106	112	87	-41
CCn1c(=O)c2cc(C(=O)NCc3ccc(C)o3)sc2c2ccccc21	110	96	101	-13
COc1ccc(Cl)cc1NC(=O)c1cc(-c2ccncc2)n[nH]1	102	.	.	7
O=C(CC1Sc2ccccc2NC1=O)Nc1ccc(F)c(Cl)c1 (configuration not stated)	100	.	.	-5
CCc1ccc(NC(=O)c2cnn(-c3c(C)cccc3C)c2C2CCN(C(=O)OC(C)(C)C)CC2)cc1	100	89	86	.
COc1ccc(/C=N/O)cc1OC	.	111	98	-11
CSc1ccccc1NC(=O)CN(C)C(=O)COc1ccc(-c2nnco2)cc1	.	69	84	-24
CCN(C(=O)Cn1c(=O)n(Cc2ccco2)c(=O)c2ccccc21)c1ccccc1	101	107	92	6
NC(=O)c1ccc(S(=O)(=O)N2CCOCC2)cc1	109	115	92	-6
Cc1ccc(SCc2ccccc2-c2nc3ccccc3[nH]2)cc1	101	95	98	16
O=C1NCCc2c1[nH]c1ccc(Br)cc21	107	.	.	-34
O=C(/C=C/c1ccco1)Nc1ccc2nc3n(c(=O)c2c1)CCCC3	103	95	63	.
Cc1ccc2cc(CN(c3ccccc3)S(C)(=O)=O)c(=O)[nH]c2c1	109	.	.	10
Cc1cccc(NC(=O)c2ccc3c(c2)OCCO3)n1	110	.	.	-2
O=C(Nc1ccc(-c2csnn2)cc1)c1cccs1	104	106	97	2
O=C(C1CCCN(c2nc3ncccc3n3cccc23)C1)N1CCCC1 (configuration not stated)	111	.	.	-23
NC(=O)c1cc(S(=O)(=O)NCCC2=CCCCC2)cs1	104	.	.	-8
CCOc1ccccc1CNCc1c(C(=O)O)n(Cc2ccccc2)c2cc(OC)ccc12	102	90	91	.
O=C(CCc1c[nH]c2ccccc12)N1CCN(c2ccccc2)CC1	.	93	89	-14

# Fetched by structure from above, 3 records:
SMILES	GIV Gai3 FP	Sa growth 42C	Sa growth 42C second temp	HCMV UL50-53 inh
CCc1ccc(NC(=O)c2cnn(-c3c(C)cccc3C)c2C2CCN(C(=O)OC(C)(C)C)CC2)cc1	100	89	86	.
O=C(c1cncn1-c1ccccc1)N(Cc1ccco1)Cc1cccs1	.	101	93	-3
CCC(=O)OCCN1C(=O)c2ccccc2C1=O	101	104	85	-44

# The listing picks up, starting 4 compounds before the break.
SMILES	GIV Gai3 FP	Sa growth 42C	Sa growth 42C second temp	HCMV UL50-53 inh
O=C(C1CCCN(c2nc3ncccc3n3cccc23)C1)N1CCCC1 (configuration not stated)	111	.	.	-23
NC(=O)c1cc(S(=O)(=O)NCCC2=CCCCC2)cs1	104	.	.	-8
CCOc1ccccc1CNCc1c(C(=O)O)n(Cc2ccccc2)c2cc(OC)ccc12	102	90	91	.
O=C(CCc1c[nH]c2ccccc12)N1CCN(c2ccccc2)CC1	.	93	89	-14
COc1cc(C(=O)/C=C/Nc2ccc(N(C)C)cc2)cc(OC)c1OC	184	71	93	.
CCN(C(=O)c1cc2c(=O)oc3ccccc3c2s1)c1cccc(C(F)(F)F)c1	112	83	108	9
N#C/C(=C\c1ccc(Cl)cc1)c1nc(-c2cc3cc(Br)ccc3oc2=O)cs1	104	.	.	-13
CCOc1c(Nc2ccc(OC)cc2)c(=O)c1=O	101	.	.	-59
CCc1ccc(NC(=O)CSc2n[nH]c(=O)c3cc(-c4ccc(OC)cc4)nn23)cc1	101	.	.	-3
O=C(c1cn(-c2ccccc2)nc1-c1cccc(Cl)c1)N1CCOCC1	108	111	4	5
Cc1ccc(NC(=O)C2CCCN(S(=O)(=O)c3cccc4cccnc34)C2)cc1Cl (configuration not stated)	104	90	89	-26
O=C(Nc1nc2ccccc2[nH]1)Nc1ccccc1F	.	112	97	-3
COC(=O)c1ccc2c(=O)n(CCCCCC(=O)NC3CCCCC3)c(=O)[nH]c2c1	102	101	87	-12
Cc1ccc(C(CC(=O)O)c2ccccc2)c(O)c1 (configuration not stated)	103	101	87	2
COc1ccc(C2CC(c3c(-c4ccccc4)c4cc(Br)ccc4[nH]c3=O)=NN2C(C)=O)c(OC)c1 (configuration not stated)	101	.	.	-19
CN1CCN(C2(CNC(=O)COc3ccc(C(C)(C)C)cc3)CCCCC2)CC1	101	116	80	-9
CC(C)NC(=O)CCN1C(=O)c2ccccc2Sc2ncccc21	103	85	107	.
CCc1ccccc1N1C(=O)N(CC(=O)c2ccc(OC)cc2)c2ccccc2S1(=O)=O	103	115	103	.
CC(C)NC(=O)c1cc(C(=O)c2cc(Br)ccc2O)coc1=N	.	120	77	-10
O=C(Cn1nc(N2CCN(c3ccccc3)CC2)ccc1=O)N1CCOCC1	102	.	.	-34
Cc1nc2cc(-c3ccccc3)nn2c(C)c1CC(=O)NCc1ccccc1	102	98	84	.
COC(=O)Cn1ncc(N2CC(C)OC(C)C2)c(Cl)c1=O (configuration not stated)	.	101	92	-27
Cc1ccc(NC(=O)Cn2cnc3onc(-c4ccc(F)cc4)c3c2=O)c(Cl)c1	103	103	92	.
Cn1c(=O)c2c(nc(NCc3ccccc3)n2Cc2ccc(Br)cc2)n(C)c1=O	98	.	.	-14
COc1ccc(Cn2cc3ccc(C(=O)NCc4ccc(Cl)cc4)cc3n2)cc1	103	.	.	-16
Cc1ccc(NC(=O)c2ccc(Br)o2)cc1C	103	109	89	-9
O=C(COc1ccccc1)N=Nc1c(O)[nH]c2ccccc12	98	88	79	-6
COc1cc(NC(=O)c2ccc(Br)o2)c(C(=O)O)cc1OC	106	113	89	-21
Cc1cc(C(F)(F)F)c(C#N)c(SCC(=O)C(C)(C)C)n1	121	82	95	-18
O=C(CSc1ccc(-c2ccncc2)nn1)NCCc1ccccc1	100	99	85	.
Fc1ccc(C2Nc3ccc(Br)cc3C3C=CCC32)cc1 (configuration not stated)	124	.	.	-5
COC(=O)c1ccc2c3c(cccc13)CC2	.	98	94	-24
O=C(O)c1ccc(CSc2nnnn2C2CCCCC2)cc1	.	108	101	4
COc1ccc2ncc(C(=O)NC3CCCC3)c(Cl)c2c1	.	107	84	-23
Cc1cc(C)nc(SCC(=O)NC2=NC(=O)C(C)S2)n1 (configuration not stated)	105	97	80	.
COc1cc(C2N(C(C)=O)N=C(NC(C)=O)N2C(C)=O)cc(OC)c1OC (configuration not stated)	107	103	100	9
Cc1nc(-c2cc(S(=O)(=O)N3CCCCC3)c(C)s2)no1	110	.	.	-5
O=C(COC(=O)c1ccc(NC(=O)c2ccc(Cl)cc2)cc1)c1ccccc1	.	94	92	-27
COc1cccc(NC(=O)/C(C#N)=C/c2c(C)n(Cc3ccccc3)c3ccccc23)c1	106	99	87	-54
Nc1ccc(N2CCCC2)cc1	92	124	33	-21
Cc1sc2nc(SC/C=C/c3ccccc3)nc(N)c2c1C	99&99	107	81	11
Cc1[nH]c(C)c(S(=O)(=O)N2CCC(C(=O)N3CC=C(c4ccccc4)CC3)CC2)c1C(=O)N1CCCCC1	107	.	.	-4
COC(=O)c1ccccc1NC(=O)c1ccc(NC(=O)c2ccco2)cc1	104	80	67	-24
CNC(C)c1ccco1 (configuration not stated)	107	83	94	2
Fc1ccccc1OCCBr	.	112	92	-25
O=C(Cn1cc(/C=N/n2cnnc2)c2ccccc21)Nc1ccc2c(c1)OCO2	94	98	97	.
CCOc1ccc(S(=O)(=O)Nc2ccc(-c3cn4ccccc4n3)cc2)cc1	102	.	.	-12
O=C(CSC1=NCCCN1)N1CCCCC1	.	105	95	-16
COC(=O)c1sc(S(C)=O)c(-c2ccon2)c1C (configuration not stated)	106	97	98	-9
C=CCc1ccccc1OCc1ccc(C(=O)O)cc1	97	90	44	.
CC1CC(=O)Nc2ccccc2N1C(=O)c1ccc(F)cc1F (configuration not stated)	109	92	80	-21
O=C(Nc1ccc2c(c1)OCO2)c1cncc(NS(=O)(=O)c2ccccc2)c1	106	122	73	.
CCOC(=O)c1sc(N2C(=O)c3oc4ccc(F)cc4c(=O)c3C2c2cccc(OC)c2)nc1C (configuration not stated)	100	90	91	-33
CCc1ccc(CNc2nc3nc(C)c(Cc4ccccc4)c(=O)n3[nH]2)cc1	106	122	86	-5
